eIF4H FP inh = inhibitors of RNA binding by human eIF4H; inhibition, % at 35 µM; eIF4H fluorescence polarization binding assay; AID 2012; actives 0.94% (n = 290,000); Q15056;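 active = 50% or more with normal probe brightness, or confirmed in later tests; inconclusive = above 50% with abnormal brightness, or retests that disagree; inactive = below 50% or failed in later tests; about a fifth of its hits are not listed in these tables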;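 note: calls also rest on retests at 20 µM and on dose response follow-up; 0% = protein and probe with vehicle and 100% = probe without protein; strong numbers were not always called active; many hits fall short of the cut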
PABP FP inh = PABP-poly(A) binding inhibition; AID 2014; inhibition, % at 35 µM; PABP-poly(A) RNA binding, fluorescence polarization; P11940; actives 1% (n = 290,000);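 active = 50% or more with normal probe brightness, or confirmed in later tests; inconclusive = above 50% with abnormal brightness, or retests that disagree; inactive = below 50% or failed in later tests; about a fifth of its hits are not listed in these tables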;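 note: calls also rest on retests at 20 µM and on dose response follow-up; controls were probe without protein and protein plus probe with vehicle; some compounds called inactive have numbers as strong as hits; many hits fall short of the cut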
Target sequence (P11940 whole entry, looked up): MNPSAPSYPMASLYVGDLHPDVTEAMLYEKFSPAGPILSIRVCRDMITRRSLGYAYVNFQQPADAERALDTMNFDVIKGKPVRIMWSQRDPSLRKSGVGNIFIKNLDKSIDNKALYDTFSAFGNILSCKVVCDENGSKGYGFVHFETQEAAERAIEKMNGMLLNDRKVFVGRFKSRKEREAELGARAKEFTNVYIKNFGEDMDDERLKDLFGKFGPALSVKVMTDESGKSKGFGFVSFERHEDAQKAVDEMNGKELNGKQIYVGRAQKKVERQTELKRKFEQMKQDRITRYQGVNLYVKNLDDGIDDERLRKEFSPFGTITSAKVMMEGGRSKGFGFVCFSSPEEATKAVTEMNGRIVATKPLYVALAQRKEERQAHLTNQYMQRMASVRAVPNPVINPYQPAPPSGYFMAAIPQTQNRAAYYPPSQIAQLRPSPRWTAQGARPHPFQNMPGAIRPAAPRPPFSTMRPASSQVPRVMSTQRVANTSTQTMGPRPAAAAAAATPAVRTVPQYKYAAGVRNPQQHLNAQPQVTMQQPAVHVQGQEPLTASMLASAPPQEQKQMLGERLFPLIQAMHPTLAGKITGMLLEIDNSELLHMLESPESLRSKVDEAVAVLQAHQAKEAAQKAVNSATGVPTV
Yeast UUG start = yeast start codon fidelity modulation | S. cerevisiae UUG-firefly luciferase reporter, luminescence/redox ratio | activity score, % at 18.7 µM | actives 0.13% (n = 350,000);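 active = replicate mean at a twofold rise or more, about +100% in these data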;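 note: firefly luciferase made from a UUG start codon reports start codon fidelity; reporter light over untreated wells divided by growth signal over untreated wells; some hits fall short of that in this replicate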
HIV Env fusion = HIV envelope-mediated fusion inhibition; HeLa-JRFL Env/CEM21 cell fusion, luciferase; inhibition, % at 12.3 µM; actives 1.1% (n = 360,000);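 active = mean replicate inhibition score of at least 50 and every replicate individually at or above 50; inconclusive = only one of the two criteria met; inactive = mean below 50 and not all replicates reaching 50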;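 note: 0% = plate neutral controls and 100% = maraviroc near 300 nM; one replicate is shown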
Rce1 inhib = blocks yeast Ras-converting enzyme. Q03530. yeast membranes, quenched prenylated peptide cleavage fluorescence. calls only. actives 0.27% (n = 290,000). AID 2563;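 active = fall in fluorescence gain of 50% or more versus controls, with final raw signal at or below 3038400; inconclusive = same 50% fall but final raw signal above 3038400; inactive = fall in fluorescence gain under 50%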;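 note: plate controls were neutral control wells for no effect and wells lacking membranes for full effect; tested at 10 µM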
Target sequence (Q03530 whole entry, looked up): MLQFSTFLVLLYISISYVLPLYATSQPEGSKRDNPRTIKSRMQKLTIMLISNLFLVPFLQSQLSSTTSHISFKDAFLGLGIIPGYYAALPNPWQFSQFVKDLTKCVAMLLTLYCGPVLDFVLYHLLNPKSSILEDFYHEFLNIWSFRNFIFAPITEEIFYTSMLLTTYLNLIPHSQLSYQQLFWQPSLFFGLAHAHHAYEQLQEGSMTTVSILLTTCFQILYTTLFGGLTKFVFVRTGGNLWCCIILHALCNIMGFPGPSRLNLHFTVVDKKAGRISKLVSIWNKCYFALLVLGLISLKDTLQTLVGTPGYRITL
CSC inhib = cancer stem cell inhibition. cancer stem cell-like cells viability, luminescence. inhibition, % at 7.5 µM. actives 1.1% (n = 300,000). AID 2717;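 active = mean at 75% or more and at least half the replicates too; inconclusive = mean and replicates disagree; tested in HMLE shEcad cells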;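 note: 0% = median of negative and 100% = median of positive control wells; the first replicate is given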
MT1-MMP act inh = inhibitors of human MT1-MMP activation; P50281; HT1080 RFP-PRO-GFP cells, GFP/RFP ratio fluorescence, overnight; percent of plate control window, DMSO zero; GFP/RFP ratio change, % at 20 µM; actives 0.061% (n = 360,000); AID 651647;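 active = GFP/RFP ratio change of at least 30% with cell ATP level not reduced by more than half and red fluorescence within 50% of control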; note: strong numbers were not always called active
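system = RFP-PRO-GFP reporter HT1080 cells | dosing = 20 µM single dose, 1% DMSO | timing = overnight cell settling, then overnight compound exposure, 37 °C, 5% CO2 | read-out basis = GFP/RFP fluorescence ratio | controls = DMSO and RFP-L50D-GFP cell wells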
eIF4H FP inh retest = also measured in eIF4H FP inh; calls as there; inhibition, %; compound at 20 µM; confirmation average;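 mean of two retest wells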
PABP FP inh retest = further read-out of PABP FP inh, marked with its call; inhibition, %; compound at 20 µM; confirmation repeats;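 mean of two retest wells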
MT1-MMP act inh RFP = second read-out of MT1-MMP act inh, no call of its own (marks repeat the call); RFP signal change, %; measured here: RFP expression control read;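 0 = vehicle wells; hits needed this value within 50% of zero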
Starred values were filed as active, the others as inactive; i = inactive; u = inconclusive; x = not tested or not shown.

SMILES	eIF4H FP inh	PABP FP inh	Yeast UUG start	HIV Env fusion	Rce1 inhib	CSC inhib	MT1-MMP act inh	MT1-MMP act inh RFP	others
O=C1O/C(=C\c2ccccc2)c2ccccc21	0	12	x	-30	i	-1	0	6
CCOC(=O)c1c(C)[nH]c(C)c1C(=O)COC(=O)CCc1ccccc1	x	x	16	7	x	-27	0	0
N#CCC(=O)c1ccccc1Oc1ccc(Cl)cc1	-4	2	x	13	i	8	4	6
O=C1NC(CCc2ccccc2)C(=O)N1CCOc1cccc(Br)c1 (centres undefined)	2	0	-8	4	i	8	5	5
O=C(Nc1ccccc1N1CCN(C(=O)c2ccc(Cl)cc2)CC1)c1ccc2c(c1)OCO2	0	-11	-10	-147	i	-7	-8	-9
Cc1noc(C)c1COc1ccc(C(=O)NCCOc2ccccc2)cc1	x	x	-12	8	x	x	5	1
Cc1ccc(S(=O)(=O)N(CC(=O)NCCC2=CCCCC2)Cc2ccccc2)cc1	4	1	-6	104*	i	13	-9	-13
CCN1CCN(C(=O)c2ccc(N3CC4CC(C3)c3cccc(=O)n3C4)c(NC(=O)c3cc(OC)cc(OC)c3)c2)CC1 (centres undefined)	1	10	-18	-7	i	-9	1	2
Cc1cc(NC(=O)CN2C(=O)NC(C)(c3ccc(Cl)cc3Cl)C2=O)no1 (centres undefined)	x	x	-23	2	x	2	-1	2
Cc1ccc(S(=O)(=O)NC(=O)COc2ccc(Cl)cc2Cl)cc1	-4	0	-11	-7	i	-15	-1	1
CCOc1ccccc1NC(=O)COC(=O)C12CC3CC(CC(O)(C3)C1)C2	x	x	-13	6	x	x	3	6
Cc1ccc(NC(=O)CN2C(=O)S/C(=C\c3cc(Cl)c(OCC(=O)O)c(Cl)c3)C2=O)cc1	51	19	-17	3	i	-11	-2	0	eIF4H FP inh retest=-8;PABP FP inh retest=36
Cc1ccc(S(=O)(=O)Nc2nc3ccccc3nc2N2CCc3ccccc3C2)cc1	1	1	-5	x	i	14	-8	-12
O=C(O)C1CCN(S(=O)(=O)c2cccc3nonc23)CC1	x	x	x	-6	i	-5	3	6
COc1c2occc2c(OC(C)=O)c2c(=O)cc(C)oc12	-3	-7	-3	8	i	10	-2	-1
CN1CCC(N2CCN(C3CN(C4CCCC4)S(=O)(=O)C3)CC2)CC1 (centres undefined)	x	x	-6	-13	x	x	3	6
CC(C)(C)OC(=O)C[C@@H]1C/C=C\C[C@@H](CC(=O)NCCO)C(=O)N[C@H](Cc2ccccc2)COC1=O	x	x	13	4	x	-8	2	2
Cn1nc(-c2ccc(Cl)cc2)c2cc(C(=O)NC3CC3)sc21	4	-6	-12	-80	i	6	-5	2
COc1ccc(N2CCN(C(=O)NC34CC5CC(CC(C5)C3)C4)CC2)cc1	-8	-4	x	-9	i	-9	3	0
Cc1ccc(SCC(=O)c2cc(C)c(OC(=S)N(C)C)c(C)c2)cc1	-11	-3	-18	x	i	-23	-2	-2
Cc1cc(=O)n2[nH]c(Nc3cccc(Cl)c3)nc2n1	x	x	-6	-15	i	-3	-3	-2
COc1ccccc1Nc1nnc(C)c(=O)[nH]1	1	6	-9	-58	i	-8	3	3
COc1ccccc1-n1c(CCC(=O)O)ccc1-c1ccccc1	-6	4	-5	-8	i	-4	-6	-3
COc1ccc(Cn2c(C)nc3c(c2=O)c2nc4ccccc4nc2n3Cc2ccco2)cc1	x	x	4	11	x	x	-19	-4
CCc1ccc2n(-c3ccc(OC)cc3)c([S-])c(C(=O)Nc3cc(C)cc(C)c3)[n+]2c1	-6	-16	-21	-16	i	3	-4	2
CCc1ccc(-c2nc(C)c(CCO)c(=O)[nH]2)cc1	-7	-7	x	5	i	-6	2	3
N[C@@H](CO)c1cn([C@@H](Cc2cc3ccccc3[nH]2)C(=O)N2CCNCC2)nn1	26	29	-11	-8	i	4	-4	3
CN(C)c1ccc(/C=C(\C#N)c2ccccn2)cc1	u	1	-90	-192	i	22	-20	2
CCCN(CCC)S(=O)(=O)c1ccc(C(=O)Nc2nnc(COC)o2)cc1	9	7	x	-38	i	21	-1	2
Cc1cccc(NC(=S)N2CCCCCC2)c1	-8	-4	x	6	i	-17	2	0
Cn1c(=O)[nH]c(=O)c2c1nc(N1CCN(C(c3ccccc3)c3ccccc3)CC1)n2CCO	0	-2	-1	11	i	8	-38	-26
C=CCn1c(SCC(=O)NC(=O)Cc2ccccc2)nc2ccccc2c1=O	x	x	-10	x	x	-10	1	3
CC(=O)c1cc(NC(=O)c2ccccc2)c(=O)oc1/C=C/N(C)C	u	u	-3	-12	i	x	-148	8
O=C(COC(=O)CNC(=O)c1ccc(Cl)cc1Cl)NCC1CCCO1 (centres undefined)	x	x	x	-3	i	-4	7	5
Cc1cc(C(C)(C)CC(C)(C)C)ccc1OCCOCC[N+](C)(C)Cc1ccccc1	x	x	-7	31	x	118*	-15	-33
COCCn1c(=S)[nH]c2cc(C(=O)N3CCN(c4cccc(Cl)c4)CC3)ccc2c1=O	3	-1	-12	-6	i	39	5	-1
COc1ccccc1N1CCN(C(=O)CN(Cc2ccc(Cl)cc2)S(C)(=O)=O)CC1	1	-6	16	x	i	-9	9	-7
Cc1nn(CC(=O)Nc2ccc3c(c2)oc2ccccc23)c(=O)c2ccccc12	-16	-17	-14	-25	i	x	2	1
O=C1CNC(=O)c2cc(Cl)ccc2N1	x	x	-9	-12	x	x	4	-2
COc1ccccc1NS(=O)(=O)c1ccc(N/N=C/C=C/c2ccccc2[N+](=O)[O-])c([N+](=O)[O-])c1	-1	-6	x	-1	x	-11	9	-3
COc1ccccc1NC(=O)c1ccccc1Oc1ccccc1	-7	-3	8	-8	i	33	-5	-6
COc1cc(OC)c(OC)cc1/C=C1\Oc2cc(OS(C)(=O)=O)ccc2C1=O	83	62	-7	9	i	-2	-105	-1	eIF4H FP inh retest=-6;PABP FP inh retest=0
NC1=NC(=O)C(CC(=O)Nc2ccc3c(c2)OCO3)S1 (centres undefined)	16	-3	x	3	i	-3	4	3
COc1ccc(/C=C/C(=O)NC(=S)NNC(=O)[C@H]2C[C@@H]2c2ccccc2)cc1OC	x	x	-11	10	i	0	-3	-1
COc1ccc(OCc2nnc(SCC(=O)O)n2N)cc1	-12	4	-14	-2	i	-2	2	4
CCOc1ccc(NC(=O)CSc2ncnc3c2sc2ccccc23)cc1	2	2	x	4	i	51	5	4
Cc1nnc(SCc2ccccc2F)n1NCc1cccs1	5	3	x	-25	i	-19	-3	1
CSc1ccc(/C=N/NC(=O)CNc2ccc3ccccc3c2)cc1	7	-8	x	-13	i	14	-6	11
Cc1cccc(C)c1Nc1cn[nH]c1	x	x	-11	-4	x	x	4	4
COc1ccccc1/C=N/NC(=O)c1cccc(OC(F)(F)C(F)F)c1	-2	-3	x	-12	i	-3	-1	1
N#Cc1cccc(C(c2nnnn2C2CCCC2)N2CCC(Cc3ccccc3)CC2)c1 (centres undefined)	-5	0	-9	x	i	20	-16	-15
CCS(=O)(=O)c1ccc2oc(SCC(=O)NCc3ccccc3)nc2c1	4	23	x	7	i	6	3	3
O=C(NCCCc1ccc(F)cc1)C1CCC(=O)N(CC2CCCCC2)C1 (centres undefined)	0	0	2	31	x	-1	3	-4
COc1ccc(CCNC(=O)COC(=O)COc2ccc(Cl)cc2)cc1OC	3	-8	x	5	i	0	0	4
O=S(=O)(c1ccc(Cl)cc1)N1CCC(O)(CN2CCN(Cc3ccccc3)CC2)CC1	5	-2	x	1	i	24	2	-3
Cc1ccc(S(=O)(=O)n2oc(=O)c(C3CCCCC3)c2N)cc1	x	x	-7	13	x	x	-1	0
CC(Sc1ncn[nH]1)C(=O)Nc1cc(C(F)(F)F)ccc1Cl (centres undefined)	x	x	-23	x	x	-2	-3	1
Cc1cccc(C)c1-n1nnnc1S(=O)(=O)Cc1ccccc1Cl	5	-2	x	x	x	0	1	-6
Cc1nc2c(cc(Oc3ccc(S(=O)(=O)N4CCOCC4)cn3)c3ccsc32)s1	-6	0	-5	-40	i	-11	-2	-13
Cc1ccc(S(=O)(=O)n2cccc2/C=C/[N+](=O)[O-])cc1	x	x	-23	27	x	x	-6	-4
Following part
SMILES	eIF4H FP inh	PABP FP inh	Yeast UUG start	HIV Env fusion	Rce1 inhib	CSC inhib	MT1-MMP act inh	MT1-MMP act inh RFP	others
CN(c1cccc(NC(=O)CSc2ccc(Cl)cc2)c1)S(C)(=O)=O	-3	-1	11	61*	i	-5	-7	-17
Cc1cc2c(C)nc(Cc3ccccc3)nc2o1	4	1	2	x	i	1	-2	1
CNC(=O)c1cc(Nc2nnc(-c3ccc(C)c(S(N)(=O)=O)c3)c3ccccc23)ccc1OC	-8	17	-3	-4	i	-12	-2	5
c1csc(CN2CCN(Cc3cccs3)C2c2cccs2)c1	0	-4	2	x	i	-3	5	5
Cc1cccc(OCC(=O)O/N=C(\N)c2ccc(Br)cc2)c1	2	8	-11	-3	i	20	-2	-1
CC(C)=NN1C(=O)c2ccccc2NC1(C)C	0	8	x	u	i	-6	1	0
COC(=O)N/N=C/c1ccc(OCCSc2ccc(Cl)cc2)c(OC)c1	1	14	-13	x	i	4	-2	-12
O=C(CSc1nc2cc(Cl)ccc2s1)N1CCN(C(=O)c2ccco2)CC1	1	7	x	x	i	-6	4	1
CCN(C(=O)c1cccc(F)c1)c1ccccc1C	4	-10	2	1	i	-15	3	1
CN1CC(c2ccccc2)Oc2ccccc2C1=S (centres undefined)	x	x	x	2	i	5	3	3
CCCOc1ccc(/C=N/NC(=S)Nc2ccccc2[N+](=O)[O-])c(O)c1	21	4	x	-128	i	89*	x	x
COC(=O)c1cccc(C(=O)N2CCCC(CNC(=O)c3ccccc3Cl)C2)c1 (centres undefined)	-10	0	-3	-9	i	-13	-1	1
O=C(CCn1nc(-c2ccc(Cl)cc2)ccc1=O)N1CCN(c2ccc(F)cc2)CC1	-7	7	7	21	i	8	8	-8
COCCCNC(=S)NNC(=O)c1csc2ccccc12	-7	-6	-12	-8	i	x	0	1
CCCCn1c(SCn2nnc3ccccc3c2=O)nc2cc(S(N)(=O)=O)ccc21	1	-3	-11	x	i	-10	0	-3
O=C(NCCc1csc(-c2ccc(Cl)cc2)n1)c1ccco1	17	10	-3	-15	i	1	0	-6
COc1ccccc1/C=C/CN1CCSCC1	-2	11	-9	-4	i	-4	0	4
COc1ccccc1CNC(=O)c1ccc2c(=O)n(CCCN3CCCC3=O)c(=S)[nH]c2c1	6	-1	x	2	i	-15	5	-4
O=C(O)c1n[nH]nc1-c1ccccc1	-4	5	x	-4	i	-15	-3	2
Cc1ccc(C)c(NC(=O)Cn2nnc(C(=O)NCc3cccs3)c2N)c1	-20	-15	-16	-88	i	19	11	-2
CCOC(=O)C1CCCN(C(=S)Nc2cccc(Cl)c2C)C1 (centres undefined)	-12	-13	-26	-15	i	-8	0	-1
Cc1nnsc1C(=O)N1CCN(c2ccc(C#N)cn2)CC1	-4	0	-18	-6	i	-10	1	0
CNS(=O)(=O)c1ccc(NC(=O)Nc2cccc(F)c2)cc1	-9	-2	x	-5	i	6	4	4
COc1ccc(C(=O)OCC(=O)c2ccc3c(c2)NC(=O)CO3)cc1OC	x	x	-1	x	x	-9	2	-1
CN(C)c1ccc(/C=C/c2ccc3c4ccccc4ccc3[n+]2-c2ccccc2)cc1	13	-3	95	-47	x	x	57	60
